# Bioassay records (PubChem)
# UUG fidelity = modulators of yeast start codon fidelity, primary screen, whole organism, S. cerevisiae, single point, plate reader; S. cerevisiae UUG-firefly luciferase reporter, luminescence/redox ratio; activity score, % at 18.7 µM; actives 0.13% (n = 350,000);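 active means replicate mean at a twofold rise or more, about +100% in these data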;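 further: firefly luciferase made from a UUG start codon reports start codon fidelity; reporter light over untreated wells divided by growth signal over untreated wells; some hits fall short of that in this replicate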
# CSC inhib = cancer stem cell viability inhibitors, primary screen, luminescence; cancer stem cell-like cells viability; actives 1.1% (n = 300,000); inhibition, % at 7.5 µM;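 active means mean at 75% or more and at least half the replicates too; inconclusive means mean and replicates disagree; tested in HMLE shEcad cells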;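 further: 0% = median of negative and 100% = median of positive control wells; the first replicate is given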
# MT1-MMP act inh = blockers of MT1-MMP proenzyme processing, primary screen, HT1080 RFP-PRO-GFP cells, GFP/RFP fluorescence. Matrix metalloproteinase-14 (Homo sapiens), P50281. GFP/RFP ratio fluorescence, overnight; percent of plate control window, DMSO zero. GFP/RFP ratio change, % at 20 µM. actives 0.061% (n = 360,000). AID 651647, 2012;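 active means GFP/RFP ratio change of at least 30% with cell ATP level not reduced by more than half and red fluorescence within 50% of control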; further: strong numbers were not always called active
#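 Material: RFP-PRO-GFP reporter HT1080 cells. Dosing: single-point 20 µM compound, 1% DMSO. Controls: DMSO and RFP-L50D-GFP cell wells. Timing: cells overnight before dosing, compound overnight, 37 °C, 5% CO2. Measure: GFP/RFP fluorescence ratio.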
# PABP FP inh = PABP poly(A) RNA binding inhibitors, primary screen, biochemical, fluorescence polarization, uHTS. inhibition, % at 35 µM. Polyadenylate-binding protein 1 (Homo sapiens), P11940. AID 2014, 2009. actives 1% (n = 290,000);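 active means 50% or more with normal probe brightness, or confirmed in later tests; inconclusive means above 50% with abnormal brightness, or retests that disagree; inactive means below 50% or failed in later tests; about a fifth of its hits are not listed in these tables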;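 further: calls also rest on retests at 20 µM and on dose response follow-up; controls were probe without protein and protein plus probe with vehicle; some compounds called inactive have numbers as strong as hits; many hits fall short of the cut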
# Target sequence (P11940 whole entry, looked up): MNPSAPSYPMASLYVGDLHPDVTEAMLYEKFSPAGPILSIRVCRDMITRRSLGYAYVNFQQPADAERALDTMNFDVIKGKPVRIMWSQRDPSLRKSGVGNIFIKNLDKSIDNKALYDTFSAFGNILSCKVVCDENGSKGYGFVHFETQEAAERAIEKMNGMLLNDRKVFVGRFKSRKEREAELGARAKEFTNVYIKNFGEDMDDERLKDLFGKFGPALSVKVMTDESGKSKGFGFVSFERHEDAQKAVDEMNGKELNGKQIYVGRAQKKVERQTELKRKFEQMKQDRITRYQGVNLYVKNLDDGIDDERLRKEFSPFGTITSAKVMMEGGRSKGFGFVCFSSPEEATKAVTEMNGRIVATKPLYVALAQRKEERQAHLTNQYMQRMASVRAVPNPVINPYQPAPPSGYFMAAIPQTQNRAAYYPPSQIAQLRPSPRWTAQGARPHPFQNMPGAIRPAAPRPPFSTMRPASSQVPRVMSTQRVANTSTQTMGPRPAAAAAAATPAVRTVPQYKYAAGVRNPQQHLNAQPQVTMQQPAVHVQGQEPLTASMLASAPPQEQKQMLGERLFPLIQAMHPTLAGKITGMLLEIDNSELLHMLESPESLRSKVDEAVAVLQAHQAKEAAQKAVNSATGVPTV
# Rce1 inhib = yeast Rce1p protease inhibitors, primary screen, biochemical, fluorescence, cell-free homogeneous; CAAX prenyl protease 2 (Saccharomyces cerevisiae (strain ATCC 204508 / S288c)), Q03530; yeast membranes, quenched prenylated peptide cleavage fluorescence; calls only; actives 0.27% (n = 290,000); AID 2563, 2010;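 active means fall in fluorescence gain of 50% or more versus controls, with final raw signal at or below 3038400; inconclusive means same 50% fall but final raw signal above 3038400; inactive means fall in fluorescence gain under 50%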;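 further: plate controls were neutral control wells for no effect and wells lacking membranes for full effect; tested at 10 µM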
# Target sequence (Q03530 whole entry, looked up): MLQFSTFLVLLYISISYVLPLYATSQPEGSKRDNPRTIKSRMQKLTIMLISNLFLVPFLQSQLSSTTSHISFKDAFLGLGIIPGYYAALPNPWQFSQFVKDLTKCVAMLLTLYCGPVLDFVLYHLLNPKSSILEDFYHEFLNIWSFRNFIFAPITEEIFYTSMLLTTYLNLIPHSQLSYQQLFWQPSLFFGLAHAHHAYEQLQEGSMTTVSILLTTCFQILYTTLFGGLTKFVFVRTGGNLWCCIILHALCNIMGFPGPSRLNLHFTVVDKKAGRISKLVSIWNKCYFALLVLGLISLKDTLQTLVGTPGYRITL
# HIV Env fusion = inhibitors of HIV-1 Env-driven cell-cell fusion, primary screen, HeLa-JRFL effector, CEM21 target cells, luciferase. inhibition, % at 12.3 µM. actives 1.1% (n = 360,000). AID 651610, 2012;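 active means mean replicate inhibition score of at least 50 and every replicate individually at or above 50; inconclusive means only one of the two criteria met; inactive means mean below 50 and not all replicates reaching 50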;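 further: 0% = plate neutral controls and 100% = maraviroc near 300 nM; one replicate is shown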
# eIF4H FP inh = human eIF4H binding inhibitors, primary screen, translation initiation inhibitor project, biochemical, uHTS, fluorescence polarization. Eukaryotic translation initiation factor 4H (Homo sapiens), Q15056. eIF4H fluorescence polarization binding assay. inhibition, % at 35 µM. actives 0.94% (n = 290,000);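 active means 50% or more with normal probe brightness, or confirmed in later tests; inconclusive means above 50% with abnormal brightness, or retests that disagree; inactive means below 50% or failed in later tests; about a fifth of its hits are not listed in these tables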;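 further: calls also rest on retests at 20 µM and on dose response follow-up; 0% = protein and probe with vehicle and 100% = probe without protein; strong numbers were not always called active; many hits fall short of the cut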
# eIF4H FP inh retest = second read-out of eIF4H FP inh, no call of its own (marks repeat the call); inhibition, %; compound at 20 µM; confirmation average;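 mean of two retest wells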
# PABP FP inh retest = second read-out of PABP FP inh, no call of its own (marks repeat the call); inhibition, %; compound at 20 µM; confirmation repeats;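 mean of two retest wells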
# MT1-MMP act inh RFP = further read-out of MT1-MMP act inh, marked with its call; RFP signal change, %; measured here: RFP expression control read;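 0 = vehicle wells; hits needed this value within 50% of zero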
# Starred values were filed as active, the others as inactive; i = inactive; u = inconclusive; x = not tested or not shown; + = active, no number; & = joins results of further samples.
SMILES,UUG fidelity,CSC inhib,MT1-MMP act inh,MT1-MMP act inh RFP,PABP FP inh,Rce1 inhib,HIV Env fusion,eIF4H FP inh,others
CC(C)c1onc(C(=O)NCCc2ccccc2)c1[N+](=O)[O-],x,-8,4,2,0,i,2,54,eIF4H FP inh retest=-9;PABP FP inh retest=3
Cc1ccc(Nc2cc(=O)[nH]c(=O)[nH]2)cc1C,-14,-17,-4,-3,2,i,9,6,
O=C(CSc1ccccn1)N1CCN(C(=O)CSc2ccccn2)CC1,x,1,2,3,-6,i,x,-2,
CCN(CC)C(=O)c1[nH]cnc1C(=O)Nc1ccccc1,-13,-41,-1,2,x,x,-21,x,
CCOC(=O)c1cnc(-c2ccccc2)nc1Oc1cccc(Cl)c1,-6,3,-5,-5,0,i,x,-10,
Cc1cc(=O)oc2cc(OCC(=O)OCC(=O)Nc3ccccc3Br)ccc12,x,-19,4,-1,10,i,-6,-1,
CCOc1ccc(/C=N/N2CCN(Cc3ccccc3)CC2)cc1,0,-5,2,-5,3,i,8,2,
O=C(COC(=O)c1ccc(S(=O)(=O)N2CCOCC2)cc1)NC1CCCCCC1,-31,5,-7,2,-7,i,x,6,
COc1ccc(NC(=O)COC(=O)c2ccc3ccccc3n2)cc1,3,-7,-1,5,x,x,-13,x,
COc1ccccc1N1N=C(c2ccc([N+](=O)[O-])cc2)CC1c1ccccc1 (stereo unspecified),-26,16,-75,27,10,i,22,56,eIF4H FP inh retest=-5;PABP FP inh retest=49
COc1ccc(-c2csc3nc(-c4ccccc4OC)oc(=O)c23)cc1,-13,64,-4,0,1,i,21,-4,
COc1cccc(-c2ccc3c(c2)O[C@@H](CN(C)Cc2cncnc2)[C@@H](C)CN([C@H](C)CO)S3(=O)=O)c1,-11&-12&-14,x,2,1,x,x,-6,x,
CCN1CCN(C(CNS(=O)(=O)c2ccc(F)cc2)c2cccnc2)CC1 (stereo unspecified),-17,0,-5,2,-19,i,-4,-1,
Cc1noc(/C=C/NCc2cccnc2)c1S(=O)(=O)N(C)CC(=O)N1CCc2ccccc21,-19,9,0,1,5,i,x,-4,
COC(=O)CNC(=O)Cc1c(F)cccc1Cl,-14,7,0,4,2,i,x,-4,
CN(C)c1ccc(P(=O)(Nc2ccc([N+](=O)[O-])cc2)N2CCOCC2)c(NC(=O)c2cccs2)c1 (stereo unspecified),x,12,-2,-1,-9,i,-11,5,
Cc1nnc(SCC(=O)NCCc2ccccc2)s1,3,-7,4,5,2,i,3,0,
COC(=O)c1nnn(-c2nc(N3CCOCC3)nc(N3CCOCC3)n2)c1C,x,-5,-3,4,-6,i,10,-5,
O=C(c1cccs1)N1CCN=C1SCc1cccnc1,-20,-9,x,x,-4,i,-17,5,
O=c1[nH]c(=S)ccn1C1OC(CO)C(O)C1O (stereo unspecified),-14,-1,6,8,x,i,x,x,
CCCCN(C)CCNC(=O)c1cc2c(-c3cccc(OC)c3)nn(C)c2s1,-11,5,-7,-5,13,+,0,3,
CN(c1ccccc1C(=O)Nc1ccc(S(=O)(=O)N2CCCC2)cc1)S(C)(=O)=O,-10,x,0,-1,10,i,x,-6,
N#Cc1c(N2CCCCC2)nc(N)c2c(N)nc(SCC(=O)O)cc12,-22,34,-8,9,u,u,3,u,
Cc1cc2[nH]c(=O)c(=O)[nH]c2cc1S(=O)(=O)NCC(C)c1ccccc1 (stereo unspecified),-16,x,-1,7,x,x,-16,x,
CC(C)Cc1ccccc1O,x,4,x,x,0,i,x,7,
COC(=O)N/N=C\c1ccc(OC/C=C/c2ccccc2)cc1,-21,-3,4,2,-6,i,-68,-6,
COc1ccc(/C=N/n2c(N)nc(-c3ccccc3)c2-c2ccccc2)cc1,-1,43,-2,5,-10,i,x,-1,
O=C(O)CN1C(=O)/C(=C\c2cccc(OCc3ccc(Cl)cc3)c2)SC1=S,-10,13,-3,1,3,i,-7,-4,
Nc1ccc(-c2nc3nc(N)nc(N)c3nc2-c2ccc(N)cc2)cc1,-2,1,0,6,10,i,-12,3,
CCOC(=O)Cn1c(CN2CCN(C(=O)c3ccco3)CC2)nc2c1c(=O)n(C)c(=O)n2C,-15,-16,1,1,1,i,6,0,
COc1ccccc1CNC(=O)CSc1nnc2c(n1)[nH]c1ccc(F)cc12,-6,4,0,-5,12,i,4,-9,
O=C(O)c1ccc(NC(=O)c2ccc3c(c2)C(=O)N(c2ccccc2)C3=O)cc1,-10,-9,-2,0,-6,i,4,-10,
O=C(NC1CC1)C1CC(=O)N(c2ccccc2)C1 (stereo unspecified),-2,-9,4,3,4,i,-9,-9,
O=C1CSC(c2ccccc2)N1c1nc(-c2ccc(Cl)cc2Cl)cs1 (stereo unspecified),x,x,-2,-4,-5,x,x,-7,
Cc1nc(C(F)(F)F)ccc1C(=O)N1CCC1(C)C(=O)NS(=O)(=O)c1c(C)noc1C (stereo unspecified),-19,x,1,5,x,x,-20,x,
Cc1n[nH]c(C)c1CNCc1c(C(=O)N2CCCCCCC2)nc2ccc(Cl)cn12,-25,6,1,1,7,i,-1,18,
COc1ccc(C(C(=O)NC2CCCC2)N(CCC(C)C)C(=O)CCC(=O)Nc2cc(C)on2)cc1 (stereo unspecified),20,x,2,1,2,i,37,-4,
C=CCN=C(NC#N)SCC(=O)c1cccc(OC)c1,x,x,-4,-6,4,i,x,4,
C=CCSc1nnc(-c2ccccc2NC(=O)CC)c(=O)[nH]1,26,0,-1,8,-4,i,x,-12,
Cc1ccc(NC(=O)c2cc([N+](=O)[O-])ccc2N2CCOCC2)cc1S(=O)(=O)N1CCOCC1,0,-9,-4,1,11,i,8,-7,
O=C(O)C1C2C=CC(O2)C1C(=O)Nc1ccccc1C(F)(F)F (stereo unspecified),-21,6,-1,5,1,i,x,13,
CCN(CC)c1ccc(C2CC(=O)NC3=C2C(=O)CC(C)(C)C3)cc1 (stereo unspecified),-5,-4,-3,-4,-3,i,x,-6,
O=C(C1CCOCC1)N1CCCC(N2CCN(c3cccc(C(F)(F)F)c3)CC2)C1 (stereo unspecified),-12,-2,3,0,7,i,7,-5,
COc1ccc(Cl)cc1NC(=O)NCC1CCN(C(=O)OC(C)(C)C)CC1,4,22,5,0,0,i,-34,-4,
C=CCOc1cccc(C(=O)/C=C2/C(=O)Nc3ccccc32)c1,-7,32,-15,-9,-1,i,-62,-5,
CCCOc1ccc(C(=O)N/N=C/c2c[nH]c3ccc(Br)cc23)cc1,-9,51,3,0,4,i,1,-6,
O=C(NCc1cccs1)c1ccc2ccccc2n1,-1,-3,-5,-3,-6,x,-13,-10,
CCn1c(CC(=O)Nc2ccc(F)cc2)nnc1SCC(=O)NC1=NCCS1,-12,-4,1,3,-5,i,-11,-4,
CCOc1ccc(CN2CCN(Cc3cnc(N4CCOCC4)s3)CC2CCO)cc1 (stereo unspecified),-16,-6,3,-1,-7,i,-5,-4,
CCCn1c(=O)[nH]c(=O)c2c1nc(-c1ccccc1)n2CCN1CCOCC1,-4,-1,3,6,26,x,x,18,
CCOc1ccccc1NC(=O)CN1C(=O)NC(Cc2c[nH]c3ccccc23)C1=O (stereo unspecified),-9,6,-3,0,x,x,7,x,
CC(O)CNc1nc2c(c(=O)n(C)c(=O)n2C)n1CCc1ccccc1 (stereo unspecified),7,-5,8,-6,-4,i,x,-8,
Cn1cnnc1SCc1nnc(-c2ccccc2Br)o1,-22,x,-4,-3,0,i,5,1,
CN(C)C(=C(C#N)C#N)N1CCN(c2ccc(Cl)c(Cl)c2)CC1,1,17,0,-7,u,i,-30,u,
Cc1ccc(CNC(=O)c2ccc(CNS(=O)(=O)c3ccc4c(c3)C(C)(C)C(=O)N4C)cc2)o1,-11,-8,-2,1,-8,i,15,-1,
CCOC(=O)c1c(-c2ccccc2)csc1NC(=O)C(C)NCCCN1CCOCC1 (stereo unspecified),x,31,3,-3,13,x,22,-2,
CC1Cc2cc(S(=O)(=O)N3CCC(C(=O)NCc4ccco4)CC3)ccc2N1C(=O)C1CCC1 (stereo unspecified),-15,-10,-3,-13,0,i,14,2,
O=C(CNC(=O)c1ccccc1F)Nc1ccc2c(c1)OCO2,x,-3,0,5,x,x,-37,x,
COc1cccc(C(C)(O)c2nc(-c3cnc4ccccc4c3)cs2)c1 (stereo unspecified),-10,x,4,-24,x,x,49,x,
O=C(c1cccs1)n1nc(NCc2ccccc2)nc1NCc1ccccc1,-17,14,-6,-8,-10,i,x,-4,
# New compounds follow.
SMILES,UUG fidelity,CSC inhib,MT1-MMP act inh,MT1-MMP act inh RFP,PABP FP inh,Rce1 inhib,HIV Env fusion,eIF4H FP inh,others
COc1ccc(OCC(=O)NNc2nc3ccccc3s2)cc1,-11,-5,-1,3,-6,i,6,1,
CCOC(=O)CSc1nnc(NC(=O)c2cccc([N+](=O)[O-])c2)s1,x,-10,5,3,-11,i,3,1,
Cc1ccc(NS(=O)(=O)c2ccc3c(c2)n(C)c(=O)n3C)c(C)c1,-7,-5,2,-1,-5,i,-8,-2,
CCOc1ccc(Oc2ccccc2NC(=O)CN2C(=O)NC3(CCCC3)C2=O)cc1,24,-6,1,1,x,i,13,x,
O=C(CCSc1ccc(Cl)cc1)Nc1cccnc1,x,-4,1,2,-18,i,0,-8,
COc1ccccc1-c1cncc(NC(C)=O)n1,-20,x,-1,3,x,x,20,x,
O=C(COC(=O)c1nn(CCO)c(=O)c2ccccc12)Nc1ccc(Cl)c(Cl)c1,-17,-5,0,0,x,x,x,x,
O=C(Nc1cc(C(F)(F)F)ccc1N1CCOCC1)c1cn2ccccc2n1,-3,13,5,0,-4,i,-28,1,
Cc1cc(C)cc(NC(=O)c2cc(=O)c3ccccc3o2)c1,x,-11,2,3,-6,i,-2,8,
COCC(=O)n1nc(NCc2ccc(OC)cc2)nc1NCc1ccc(OC)cc1,-1,-21,2,2,1,i,x,0,
Cc1ccc(Cn2c(C(=O)O)cc3sccc32)cc1,x,-2,1,4,-9,i,x,-15,
COC(=O)c1sc2ncn(-n3c(C)ccc3C)c(=O)c2c1C,-21,-8,3,-2,-10,i,10,-10,
O=C(Nc1ccc(F)c(Cl)c1)Nc1ccc(Cl)cn1,x,2,0,-1,7,i,-28,4,
CCN(CC)S(=O)(=O)c1cc(-c2nnc(-c3ccc(Br)cc3)o2)ccc1Br,-13,24,-1,-23,8,i,x,-6,
Fc1cccc(Cl)c1Cc1noc(/C=C/c2ccccc2)n1,-18,4,-3,0,-4,x,x,-6,
CC(=O)Nc1sc(N/N=C/c2ccccc2F)nc1-c1ccc(C)cc1,x,-4,0,-5,12,i,-7,-6,
